Compound activity (PubChem)
NPYLR7 agonist – agonists of mosquito NPYLR7 receptor, primary screen, cell-based, Aedes aegypti, calcium fluorescence, mosquito biting behavior; actives 0.15% (n = 270,000); Aedes aegypti neuropeptide Y-like receptor 7 (NPYLR7); HEK293T NPYLR7/Galpha15, GCaMP6s calcium fluorescence; AID 1259423, 2018; activation, % at 10 µM; in the data active = activation above about 40%;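 note: 0% = vehicle and 100% = reference agonist at the receptor; some compounds past the cut are filed as inactive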
NPYLR7 agonist max-min – further read-out of NPYLR7 agonist, marked with its call; activation, %; measured here: Max-Min RFU normalised activation; some inactives read as strong as hits;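 span of the calcium signal over five minutes; 0% = vehicle and 100% = native peptide agonist; compound fluorescence can raise it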
Active calls of the source: *; & = joins results of further samples. These rows are one share of the data; count on the stated rates, not on these rows.

The opening 25 records, ahead of the listing:
SMILES	NPYLR7 agonist	NPYLR7 agonist max-min
COc1ccccc1-n1cnn(CN(CC(C)C)C2CC2)c1=S	4	1
CC1CCN(c2ccc(NC(=O)Nc3ccc(F)c(Cl)c3)cc2C(=O)NC2CC2)CC1	34	33
C=CCOc1ccc(Br)cc1C1c2cc3c(cc2OC(=N)C1C#N)OCO3 (stereo not drawn)	4	4
O=S(=O)(Cc1ccccc1Cl)N1CCOC2(CNCCOC2)C1 (stereo not drawn)	12	9
Cn1c(=O)c2c(nc(CN3CCOCC3)n2CCc2ccccc2)n(C)c1=O	7	3
CC(NC(=O)c1ccc(CSc2nc3ccccc3[nH]2)cc1)c1ccc(S(C)(=O)=O)cc1 (stereo not drawn)	10	5
CCC1=NN(C(=O)c2ccc(O)cc2)C(O)(C(F)(F)F)C1 (stereo not drawn)	-4	-3
Cc1nnnn1C(Cc1cccc(F)c1)C(=O)N1CCCC(C(=O)NCC(C)C)C1 (stereo not drawn)	7	5
CCN1N=C(C)Cn2c1nc1c2c(=O)n(Cc2ccccc2Cl)c(=O)n1C	-6	-7
CCOC(=O)CC(C)NC(=S)NCCc1nc2ccccc2[nH]1 (stereo not drawn)	-6	-11
CCOC(=O)N1CCN(C(=O)CSc2c(-c3ccccc3)[nH]c3ccccc23)CC1	6	3
Cc1cc(N2CCN(Cc3ccccc3)CC2)nc(SCc2cccc(C(=O)NCCc3ccccn3)c2)n1	11	15
COC(=O)c1c(OC2CCCC2)cc(=O)n2c1CCN(C(=O)C1CCOC1)CC2 (stereo not drawn)	15	10
O=C(Nc1nc(CCC(=O)N2CCCCCC2)cs1)NC1CCCCC1	5	4
CCCc1cc(=O)n(CC(=O)N2CCCc3ccccc32)c(-n2nc(C)cc2C)n1	-2	2
CC(C)Cc1cc(C(=O)N2N=C(C(F)F)CC2(O)C(F)F)c2ccccc2n1 (stereo not drawn)	2	9
O=C(Cn1nnnc1CN1CCCC1)NCC(F)(F)F	-6	-7
O=C(CSc1ccc(NC(=O)c2cccc(F)c2)nn1)NCCc1ccccc1	0	-2
Oc1ccc([S+]2CCCCCC2)cc1	-7	-19
Cc1cc(C)[n+](-c2ccc(F)cc2)c2[nH]c(=O)[nH]c(=O)c12	4&0	1&-1
N#Cc1ccc(C(F)(F)F)nc1SCC(N)=O	4&1	1&3
Cc1nc2scc(-c3cccs3)c2c(=O)n1CC(=O)Nc1ccccc1	6	5
CCOC(=O)Cc1c(C)nc2ncnn2c1N1CCN(C(=O)Cc2cc(OC)ccc2OC)CC1	23	12
CCOC(=O)CN(CC1CC1)[C@@H]1C[C@@H]2CO[C@H](c3ccccc3)C[C@@H]2C1	11	18
CC(C)CCOP(=O)(c1ccc(N(C)C)cc1)C(O)c1ccccc1F (stereo not drawn)	-1	3

All compounds of this part, repeating the preview:
SMILES	NPYLR7 agonist	NPYLR7 agonist max-min
COc1ccccc1-n1cnn(CN(CC(C)C)C2CC2)c1=S	4	1
CC1CCN(c2ccc(NC(=O)Nc3ccc(F)c(Cl)c3)cc2C(=O)NC2CC2)CC1	34	33
C=CCOc1ccc(Br)cc1C1c2cc3c(cc2OC(=N)C1C#N)OCO3 (stereo not drawn)	4	4
O=S(=O)(Cc1ccccc1Cl)N1CCOC2(CNCCOC2)C1 (stereo not drawn)	12	9
Cn1c(=O)c2c(nc(CN3CCOCC3)n2CCc2ccccc2)n(C)c1=O	7	3
CC(NC(=O)c1ccc(CSc2nc3ccccc3[nH]2)cc1)c1ccc(S(C)(=O)=O)cc1 (stereo not drawn)	10	5
CCC1=NN(C(=O)c2ccc(O)cc2)C(O)(C(F)(F)F)C1 (stereo not drawn)	-4	-3
Cc1nnnn1C(Cc1cccc(F)c1)C(=O)N1CCCC(C(=O)NCC(C)C)C1 (stereo not drawn)	7	5
CCN1N=C(C)Cn2c1nc1c2c(=O)n(Cc2ccccc2Cl)c(=O)n1C	-6	-7
CCOC(=O)CC(C)NC(=S)NCCc1nc2ccccc2[nH]1 (stereo not drawn)	-6	-11
CCOC(=O)N1CCN(C(=O)CSc2c(-c3ccccc3)[nH]c3ccccc23)CC1	6	3
Cc1cc(N2CCN(Cc3ccccc3)CC2)nc(SCc2cccc(C(=O)NCCc3ccccn3)c2)n1	11	15
COC(=O)c1c(OC2CCCC2)cc(=O)n2c1CCN(C(=O)C1CCOC1)CC2 (stereo not drawn)	15	10
O=C(Nc1nc(CCC(=O)N2CCCCCC2)cs1)NC1CCCCC1	5	4
CCCc1cc(=O)n(CC(=O)N2CCCc3ccccc32)c(-n2nc(C)cc2C)n1	-2	2
CC(C)Cc1cc(C(=O)N2N=C(C(F)F)CC2(O)C(F)F)c2ccccc2n1 (stereo not drawn)	2	9
O=C(Cn1nnnc1CN1CCCC1)NCC(F)(F)F	-6	-7
O=C(CSc1ccc(NC(=O)c2cccc(F)c2)nn1)NCCc1ccccc1	0	-2
Oc1ccc([S+]2CCCCCC2)cc1	-7	-19
Cc1cc(C)[n+](-c2ccc(F)cc2)c2[nH]c(=O)[nH]c(=O)c12	4&0	1&-1
N#Cc1ccc(C(F)(F)F)nc1SCC(N)=O	4&1	1&3
Cc1nc2scc(-c3cccs3)c2c(=O)n1CC(=O)Nc1ccccc1	6	5
CCOC(=O)Cc1c(C)nc2ncnn2c1N1CCN(C(=O)Cc2cc(OC)ccc2OC)CC1	23	12
CCOC(=O)CN(CC1CC1)[C@@H]1C[C@@H]2CO[C@H](c3ccccc3)C[C@@H]2C1	11	18
CC(C)CCOP(=O)(c1ccc(N(C)C)cc1)C(O)c1ccccc1F (stereo not drawn)	-1	3
CCOC(=O)CSc1nnc(-c2cccc(C)c2[N+](=O)[O-])n1-c1ccccc1	8	4
O=C(NCCCOCC1CC1)Nc1ccc(Br)cc1F	5	0
CC(=O)Nc1ccc(Cl)c(C(=O)NC(C)C(=O)Nc2ccc(F)cc2C)c1 (stereo not drawn)	20	12
CC(C)c1ccc(CN2CCC2(C)C(=O)Nc2cccc(NS(C)(=O)=O)c2)cc1 (stereo not drawn)	4	1
CSCCNC(=O)c1coc(COc2cccc(C(F)(F)F)c2)n1	5	5
O=C(Cn1c(-c2ccoc2)nc(-c2ccccc2)c1-c1ccccc1)N1CCC[C@H]1CO	9	2
CCN1CCC(C(=O)NC(c2ccc(Cl)cc2)c2cccnc2)CC1 (stereo not drawn)	6	0
O=C(Cc1ccc(-c2ccccc2)cc1)Oc1coc(CSc2ncccn2)cc1=O	-7	-7
CCOc1ccc(-c2nc(C(N)=O)c3[nH]c(=O)n(-c4ccccc4OCC)c3n2)cc1OC	19	10
CN(C(=O)CCc1cccc(F)c1)c1ccccc1S(C)(=O)=O	5	3
CCNc1cc(C)nc(N2CCN(C(=O)c3ccc(I)cc3)CC2)n1	2	0
CCCS(=O)(=O)N(C)Cc1noc(CC)n1	-3	-9
Cc1cccc(OCC(=O)NCC(=O)N=Nc2c(O)n(Cc3ccccc3)c3ccccc23)c1	0	-9
CCCCCCSc1nnc2c(n1)OC(C)(C)Nc1ccccc1-2	4	2
Cc1ccc(C2c3ccccc3CCN2C(=O)c2c(-c3ccccc3)noc2C)cc1 (stereo not drawn)	-1	8
CN(CC1CCCN1C)c1nccc(C2CCCC2)n1 (stereo not drawn)	17	10
Oc1oc(-c2ccc(Br)cc2)nc1C=Nc1cccc2ccccc12	-5	-7
COc1ccccc1CN(C(=O)c1c(O)cc(F)cc1F)C1CC1	4	1
O=C(CCSc1nc2ccccc2n1S(=O)(=O)c1ccccc1)N1CCCCC1	11	21
O[C@H]1CN(Cc2ccccc2-c2ccco2)C[C@@H]1N1CCN(c2ccccn2)CC1	3	1
CN(Cc1cn[nH]c1-c1ccc(F)cc1)S(=O)(=O)NCc1ccccc1	-1	-3
O=C(Cn1cnc([N+](=O)[O-])n1)N/N=C\c1ccccc1O	-7	-14
Cc1c(-c2ccccc2)n[nH]c1C(=O)O	-2	-3
CC(C)NC(=O)C1(C)CCN1C/C=C/c1ccccc1 (stereo not drawn)	1	0
CCOC(=O)C1(Cc2cccc(Cl)c2)CCCN(C(=O)Cc2cnc3ncnn3c2)C1 (stereo not drawn)	-5	-10
COc1cccc(C(=O)N2C(C(=O)NC3CC3)COC23CCC(C)CC3)c1 (stereo not drawn)	21	32
CS(=O)(=O)NCC(=O)NC1CC(=O)N(Cc2cccc3ccccc23)C1 (stereo not drawn)	4	2
Cc1noc(C)c1CNC(=O)CCn1c(=O)[nH]c2ccccc21	3	3
Cc1ccc(Oc2ccccc2NC(=O)c2ccn(C)c(=O)c2)cc1	4	4
Cc1ccc(-c2nc(Nc3ccc(F)cc3)c3ccc(Cl)cc3n2)cc1	12	20
COc1ccc(-n2c(=O)[nH]c3c(C(N)=O)nc(-c4ccc(F)c(F)c4)nc32)cc1OC	-7	-10
Cc1cc(C(=O)Nc2nc(-c3ccc(F)c(F)c3)c(C)s2)no1	-8	-12
COCCN(Cc1cccc(OC)c1OC)CC(O)Cc1ccccc1 (stereo not drawn)	11	25
COc1cc(-c2cccs2)cc2c1OCCN(C(=O)[C@@H](N)Cc1cnc[nH]1)C2	1	-1
O=C(c1cc2ccccc2s1)N1CCC(c2cn(Cc3ccc(C(F)(F)F)cc3)c3ccccc23)CC1	25	15
Following part.
SMILES	NPYLR7 agonist	NPYLR7 agonist max-min
C=CCN(Cc1nc(C)cs1)S(=O)(=O)c1ccc(OC)cc1	0	0
O=S(=O)(Nc1ccc(F)cc1)c1cc(Br)ccc1Br	0	-4
CCCC(NC(=O)C1CCOCC1)c1ccccc1 (stereo not drawn)	0	0
COc1ccccc1NC(=O)C1=C(C)N(C)C(=S)NC1c1cccs1 (stereo not drawn)	5	5
Cc1cnc(CNC(=O)CC23CC4CC(CC(C4)C2)C3)cn1	5	2
